From PubChem BioAssay
Rango dissoc inh = qHTS Assay for Inhibitors of RanGTP induced Rango (Ran-regulated importin-beta cargo) - Importin beta complex dissociation. Snurportin-1 (Homo sapiens) + GTP-binding nuclear protein Ran (Homo sapiens) + Importin …. Potency, µM (doses to about 46.1 µM), for inactives: at the highest dose activity change, negative = inhibition. 340,000 compounds, 0.071% hits. Biochemical FRET Rango-importin beta, RanGTP-induced dissociation; active means falling FRET ratio curve, often poorly fitted, with flat reads before Ran was added; inconclusive means other falling curves, or compound fluorescence or quenching; inactive means flat or rising ratio curve;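 further: potency means the concentration at half of the fitted maximal effect; % of control where 0% means no effect; nearly all actives have a fitted effect of over 45% in size; -100% = wells without RanGTP and RCC1; the record marks most hits as doubtful in a second field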
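Quantitative HTS using a FRET biosensor: 0.1 uM Rango, 0.25 uM importin beta, 0.6 uM Ran, 2 mM GTP, 0.2 uM RCC1 final, PBS with DTT, Tween-20 and BSA. Post-read taken 45 min after Ran addition.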
Rango-impB inh = qHTS Assay for Inhibitors of Rango (Ran-regulated importin-beta cargo) - Importin beta complex formation. Potency, µM (top dose mostly 92.2 µM), without a hit: at the top dose inhibition of complex formation. Rango CFP/YFP FRET sensor + importin beta, 45 min. 340,000 compounds, 0.031% hits. Importin subunit beta-1 (Homo sapiens), Q14974; active = rising FRET ratio curve, often small or poorly fitted; inconclusive = mostly compound fluorescence or quenching in the first reads; inactive = flat curves in all reads;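 further: potency means the concentration at half of the fitted maximal effect; 0% = DMSO wells and 100% = buffer wells lacking importin beta; nearly all actives have a fitted effect of over 15% in size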
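FRET biosensor Rango (snurportin 1 IBB between N-terminal EYFP and C-terminal Cerulean), 50 nM in PBS/1 mM DTT/0.02% Tween-20/0.1% BSA, preincubated 5 min RT with compound; 0.125 microM importin beta added, 45 min RT, CFP/YFP FRET ratio read.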
miR-21 reporter = qHTS Assay for Modulators of miRNAs and/orActivators of miR-21. HeLa miR-21 FLuc reporter, luciferase, 48 h. Potency, µM (titrated, usually from 38.3 µM), without a hit: at the top dose reporter change, positive = more light. 340,000 tested, under 10 active; active = well fitted rising curve with a large enough effect; inconclusive = small, poorly fitted or top-dose-only effect; inactive = no such curve, though single readings can be large or run the other way;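 further: % of control where 0% means no effect; miR-21 action dims this reporter so a rising signal means less miR-21 action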
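HeLa cells stably expressing CMV-driven firefly luciferase with a downstream miR-21 binding sequence, endogenously expressing miR-21, were treated with titrations (up to about 40uM final) for 48 hours at 37 degree Celsius. Luciferase luminescence was read after lysis.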
GLA inh pH 4.5 = qHTS Assay for Inhibitors of Human alpha-Galactosidase at pH 4.5 | Alpha-galactosidase A (Homo sapiens), P06280 | purified enzyme, 4-MU-alpha-Gal fluorescence, pH 4.5 | activity change, negative = inhibition, % at 105 µM | 230,000 tested, under 10 active | AID 1467, 2008; inconclusive = small, poorly fitted or top-dose-only inhibition, or a rising curve; inactive = flat fitted curve, though single readings scatter; no compound was filed as active;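 further: 0% = full activity with enzyme and -100% = basal without enzyme; dose as in the result columns while the protocol names 77 µM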
Target sequence (P06280 whole entry, looked up): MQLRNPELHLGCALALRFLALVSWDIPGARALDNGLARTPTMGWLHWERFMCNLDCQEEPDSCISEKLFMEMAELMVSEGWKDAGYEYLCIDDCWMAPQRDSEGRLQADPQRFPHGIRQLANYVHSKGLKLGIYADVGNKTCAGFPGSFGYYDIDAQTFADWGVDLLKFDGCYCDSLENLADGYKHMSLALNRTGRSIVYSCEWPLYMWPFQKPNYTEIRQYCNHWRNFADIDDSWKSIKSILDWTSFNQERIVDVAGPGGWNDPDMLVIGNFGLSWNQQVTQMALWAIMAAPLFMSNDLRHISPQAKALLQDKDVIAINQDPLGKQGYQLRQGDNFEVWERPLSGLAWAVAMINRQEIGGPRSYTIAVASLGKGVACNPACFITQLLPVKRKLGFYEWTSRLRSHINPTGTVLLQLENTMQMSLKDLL
Starred values were filed as active, the others as inactive; ? = inconclusive; nt = not tested or not shown; & = joins results of further samples; [ ] = remark or other dose. Not all compounds are listed. The share of hits here may be higher or lower than overall.

| smiles | Rango dissoc inh | Rango-impB inh | miR-21 reporter | GLA inh pH 4.5 |
| --- | --- | --- | --- | --- |
| O=C(Nc1ccc2c(c1)OCCO2)c1ccc(Cl)c([N+](=O)[O-])c1 | -13.8% | -3.5% | -16.7% | 1.5 |
| COc1ccc(/C=C/C(=O)N(C(C)C)C(C)C)cc1Br | -10.7% | -2.7% | -41.1% | -6.6 |
| COc1ccc2cc3c(N)nn(C(=O)c4ccccc4[N+](=O)[O-])c3nc2c1 | 7.2% | 6.9% | 28.7% | -7.4 |
| Nc1cccc(-c2cnc3ccccc3n2)c1 | 13.2% | 0.5% | -54.9% | nt |
| CCCCCn1nnc2c(=O)oc3ccccc3c21 | 0.4% | 0.8% | -0.7% | 14.5 |
| COc1ccccc1C1(O)CCN(CC(=O)Nc2nc(-c3ccccc3)cs2)CC1 | 0.1% | 5.0% | ? | -0.8 |
| CCC(CC)C(=O)NCCc1cc2ccc(OC)cc2[nH]c1=O | -5.2% | -6.8% | -0.3% | -3.1 |
| COc1ccc(N/C=C2/CCCCC2=O)cc1 | -6.0% | 2.2% | -28.5% | 1.1 |
| C#CCOCCOCCOCCNc1nc(N2CCOCC2)nc(N2CCN(C(=O)Cn3cc(CCCN=C(N)N)nn3)CC2)n1 | 1.5% | -1.3% | -2.2% | -1.5 |
| CC1CCCN(CC(O)CN2CCN(CC(O)CN3CCCC(C)C3)C(C)C2)C1 (stereo not given) | -2.9% | 0.3% | nt | nt |
| O=C(COC(=O)CCc1c[nH]c(=O)[nH]1)Nc1ccccc1 | -8.7% | ? | 4.0% | 0.5 |
| O=C(Nc1ccccc1Cl)c1cc2ccccc2o/c1=N\O | 5.6% | 0.6% | -44.5% | nt |

Molecules from the list above that have a Cl atom (two):
| smiles | Rango dissoc inh | Rango-impB inh | miR-21 reporter | GLA inh pH 4.5 |
| --- | --- | --- | --- | --- |
| O=C(Nc1ccc2c(c1)OCCO2)c1ccc(Cl)c([N+](=O)[O-])c1 | -13.8% | -3.5% | -16.7% | 1.5 |
| O=C(Nc1ccccc1Cl)c1cc2ccccc2o/c1=N\O | 5.6% | 0.6% | -44.5% | nt |

Continuation.
| smiles | Rango dissoc inh | Rango-impB inh | miR-21 reporter | GLA inh pH 4.5 |
| --- | --- | --- | --- | --- |
| O=[N+]([O-])c1ccc(O)c2cccnc12 | 18.7% | 2.1% | -3.0% | -9.8 |
| Cc1ccc(Cn2c([N+](=O)[O-])cnc2C)cc1 | 0.2% | -4.4% | -2.7% | -6.0 |
| O=C1N(Cc2cccc(Cl)c2)C[C@@H]2C[C@@H](c3cccn3-c3nccs3)N3CCC[C@@]123 | 14.3% | 2.2% | 0.0% | 3.0 |
| O=C(Nc1ccc(S(=O)(=O)N2CCc3ccccc32)cc1)c1ccco1 | 0.7% | 4.2% | 10.5% | -12.3 |
| CC(=O)N1CCOc2ccc(S(=O)(=O)N3CCC(C)CC3)cc21 | 4.7% | -4.1% | 1.3% | nt |
| COc1ccccc1C1CCN(Cc2cccc3ccccc23)CC1 | -6.6% | 0.1% | -7.6% | nt |
| CCN(CC(=O)Nc1ccccc1C(F)(F)F)C(=O)c1oc2c(Cl)cccc2c1C | 9.6% | 7.3% | nt | nt |
| CCOc1ccccc1NC(=O)COC(=O)C(CC(C)C)N1C(=O)C2CC=CCC2C1=O (stereo not given) | -2.1% | 0.1% | -2.5% | 3.3 |
| COc1ccc2oc(C(=O)N3CCCc4ccccc43)c(C)c2c1 | -10.7% | -1.3% | nt | nt |
| Cc1c(NS(=O)(=O)c2cc(C(=O)O)ccc2Cl)c(=O)n(-c2ccccc2)n1C | 6.2% | -0.5% | 0.2% | nt |
| O=C(Nc1nc2cc3c(cc2s1)OCCO3)C1=COCCO1 | -3.7% | -1.1% | ? | -7.6 |
| CC(C)Cc1csc(NC(=O)c2ccc(Cl)cc2)c1C(=O)O | 5.1% | 0.3% | 23.1% | -4.5 |

Additional results follow:
| smiles | Rango dissoc inh | Rango-impB inh | miR-21 reporter | GLA inh pH 4.5 |
| --- | --- | --- | --- | --- |
| CN(CC(=O)N1CCc2ccccc21)S(=O)(=O)c1cccc2cccnc12 | -11.8% | -1.4% | -2.6% | -25.9 |
| Cc1c(Br)c([N+](=O)[O-])nn1C(C)C(=O)NCC1CCCO1 (stereo not given) | 0.4% | -0.4% | 0.2% | 0.8 |
| O=C(COc1coc(CN2CCc3ccccc3C2)cc1=O)Nc1ccc(Cl)cc1 | 0.5% | 1.6% | nt | nt |
| Cc1nn(-c2ccccn2)c2c1C(=O)CC(C)(C)C2Br (stereo not given) | -12.5% | -2.1% | 11.7% | -3.3 |
| CCn1c(CS(=O)Cc2ccc(Cl)cc2Cl)nnc1SCc1c(Cl)cccc1Cl (stereo not given) | 8.0% | -0.3% | -2.9% | -3.3 |
| CCN(CC(=O)Nc1ccc(NC(C)=O)cc1)C(=O)c1cccnc1Sc1ccc(C)c(C)c1 | 15.8% | 2.7% | nt | nt |
| CCOC(=O)C1CCCN(C(=O)c2cn(C)c3ccc(S(=O)(=O)N(C)C)cc3c2=O)C1 (stereo not given) | 2.2% | 2.4% | -1.4% | -15.1 |
| CCCCC[C@@H]1C=C(C(=O)O)[C@H](c2ccc(CC)cc2)N1S(=O)(=O)c1ccc(C)cc1 | 19.9% | -0.7% | nt | nt |
| O=C(CSC1=NC(=O)C(c2ccccc2)C(=O)N1)Nc1ccccc1Cl (stereo not given) | 11.8% | 4.1% | 8.8% | 8.9 |
| Cc1[nH]c(=O)[nH]c(=O)c1/C=N/NC(=O)[C@H](CC(C)C)NC(=O)OC(C)(C)C | 4.9% | 3.2% | 1.4% | 6.8 |
| COc1ccc(C2CC(c3cccs3)=NN2C(=O)CSc2nncn2C)cc1OC (stereo not given) | -17.7% | -2.1% | 4.9% | 12.0 |
| CC1(C)Oc2ccc3ccc(=O)oc3c2CC1O (stereo not given) | -0.2% | 0.4% | -4.5% | -7.6 |

Later entries:
| smiles | Rango dissoc inh | Rango-impB inh | miR-21 reporter | GLA inh pH 4.5 |
| --- | --- | --- | --- | --- |
| COc1cccc(/C=C/C(=O)OCC(=O)c2ccccc2)c1OC | ? | -4.7% | nt | nt |
| Cc1onc(-c2c(F)cccc2Cl)c1C(=O)OCC(=O)NC(=O)NCC(C)C | -6.6% | -0.2% | 5.5% | -3.0 |
| CN1C(=O)C(=C2CCCCCC2)SC1=S | 0.3% | 0.3% | -10.9% | 7.5 |
| COCCn1c(Cc2cccn2C)nnc1SCC(=O)Nc1nccs1 | -7.3% | -1.3% | 3.2% | 2.8[21.1 µM] |
| COC(=O)N/N=C1\CCCc2c(C)cc(C)cc21 | 4.3% | -0.7% | -6.2% | -0.8 |
| CCSc1nc2sc3c(c2c(=O)n1-c1ccccc1)CCN(C(C)C)C3 | -20.5% | ? | 8.9% | nt |
| COc1ccc(F)c(C2C(C#N)=C(N)Oc3n[nH]c(C(C)(C)C)c32)c1 (stereo not given) | -7.1% | -3.6% | 7.3% | -25.1 |
| COc1ccc(-n2c(=O)c3ccccc3n(CC(=O)Nc3ccccc3OC)c2=O)cc1 | 8.1% | -2.3% | 0.2%&-4.6% | -0.6[21.1 µM] |
| O=C(COC(=O)CCC(=O)Nc1nccs1)NCc1ccco1 | 13.2% | 2.6% | -2.5% | 4.6 |
| O=C(OCC(=O)N1CCCCCC1)c1cccs1 | -0.1% | 2.5% | -31.2% | -7.0 |
| Fc1ccc(-c2cc(C(F)(F)F)nc(-n3cncn3)n2)cc1 | -12.0% | -2.5% | -15.5% | 0.9 |
| COc1ccc(NC(=O)C2CCN(S(=O)(=O)c3c(C)noc3/C=C/N(C)C)CC2)cc1 | -26.0% | ? | -2.0% | nt |

(listing goes on)
Every second line gives: Rango dissoc inh	Rango-impB inh	miR-21 reporter	GLA inh pH 4.5
O=C(/C=C/c1cccc(F)c1)N1CCc2ccccc21
→ -9.1%	-4.8%	-52.2%	2.2
CCN(CC)S(=O)(=O)c1cc(C(=O)O)c(Cl)cc1Cl
→ 2.1%	4.7%	-7.7%	-0.6
COc1cc(OC)cc(-c2cc(N)n(S(=O)(=O)Cc3ccccc3)n2)c1
→ -1.9%	-1.9%	-8.1%	-6.4
Cc1ccc(C)c(C(=O)C(C)OC(=O)c2cccn2C)c1 (stereo not given)
→ 0.9%	-1.6%	-6.2%	-4.7
CCCn1c(C(O)c2ccc3c(c2)OCO3)nc2ccccc21 (stereo not given)
→ -0.2%	6.6%	-10.5%	2.7
CCOc1ccc(NC(=O)CN(C)S(=O)(=O)c2ccc3c(c2)CCC(=O)N3)cc1
→ -0.1%	-0.9%	6.6%	-6.2
O=C(Nc1ccccn1)c1ccc2nc(-c3ccccc3)c(-c3ccccc3)nc2c1
→ nt	nt	-16.0%	-22.8
CC(Oc1ccc(Cl)cc1Cl)c1nc(-c2ccc(NC(=O)c3ccco3)cc2)no1 (stereo not given)
→ -2.1%	-6.9%	-29.7%	2.9
O=C(CSc1ncnc2ccccc12)Nc1cccc(S(=O)(=O)N2CCCC2)c1
→ 0.3%	?	0.5%	3.6
CCOC(=O)c1ccc(NC(=O)Cn2c(C)nc3c(sc(=S)n3CC)c2=O)cc1
→ 10.7%	-0.9%	5.9%	nt
COC(=O)/C(=C1/Oc2cc(C)oc(=O)c2S1)C(F)(F)F
→ 2.6%	-1.8%	1.9%	-5.0
O=C(COc1ccc(Br)cc1)Nc1ccc(Cc2ccncc2)cc1
→ 1.1%	2.0%	0.0%	-1.3
CCc1c(C#N)c(SCCC(=O)Nc2ccc(OC)cc2)nc2c1C(=O)CC(C)(C)C2
→ -10.7%	4.0%	0.5%	-10.7
CC(C)c1c(C(=O)N/N=C/c2cccc(OCc3ccc(F)cc3)c2)nnn1-c1nonc1N
→ 28.0%	?	-6.0%	nt
CCn1ncc(Br)c1C(=O)N(C)C12CC3CC(CC(C3)C1)C2
→ -19.2%	-3.3%	0.4%	5.9
CC1Cc2cc(S(=O)(=O)CCC(=O)N3CCN(c4ccccc4)CC3)ccc2N1C(=O)C1CC1 (stereo not given)
→ 0.0%	-1.3%	-24.6%	nt
COc1cccc(OC)c1NC(=O)C1CCCN1C(=O)Nc1ccccc1F (stereo not given)
→ -5.7%	4.2%	-1.4%	nt
COc1ccc(C)cc1Nc1n[n+](-c2ccccc2)c(-c2ccc(SC)cc2)s1
→ 0.4%	2.3%	6.3%	nt
COc1ccc(C(=O)NCC(c2cccs2)N2CCc3ccccc32)cc1OC (stereo not given)
→ 4.9%	-4.0%	nt	nt
COc1ccc(NC(=O)CSc2nnc(CN3CCOCC3)n2C)cc1Cl
→ -1.4%	0.1%	nt	nt
Cc1ccc(CNC(=O)c2ccccc2NS(=O)(=O)c2ccc(Cl)nc2)cc1
→ 3.0%	-0.1%	4.8%	nt
COc1ccc(C(=O)OCC(=O)N2CCc3ccccc32)cc1S(=O)(=O)N1CCOCC1
→ -10.0%	-0.2%	nt	nt
Cc1ccc(C)c(S(=O)(=O)N2CCN(C(=O)CN3C(=O)NC(C)(C)C3=O)CC2)c1
→ -11.0%	0.3%	nt	nt
COc1ccc(-c2ccc(SCC(=O)N3c4ccccc4CC3C)nn2)cc1OC (stereo not given)
→ -3.5%	1.3%	-25.1%	-14.6

Reprinted at random: five entries already listed, in no set order.
Every second line gives: Rango dissoc inh	Rango-impB inh	miR-21 reporter	GLA inh pH 4.5
Cc1ccc(C)c(S(=O)(=O)N2CCN(C(=O)CN3C(=O)NC(C)(C)C3=O)CC2)c1
→ -11.0%	0.3%	nt	nt
CCc1c(C#N)c(SCCC(=O)Nc2ccc(OC)cc2)nc2c1C(=O)CC(C)(C)C2
→ -10.7%	4.0%	0.5%	-10.7
Cc1ccc(C)c(C(=O)C(C)OC(=O)c2cccn2C)c1 (stereo not given)
→ 0.9%	-1.6%	-6.2%	-4.7
O=C(/C=C/c1cccc(F)c1)N1CCc2ccccc21
→ -9.1%	-4.8%	-52.2%	2.2
O=C(COc1ccc(Br)cc1)Nc1ccc(Cc2ccncc2)cc1
→ 1.1%	2.0%	0.0%	-1.3
